High-throughput results: PubChem, National Center for Advancing Translational Sciences (NCATS)
PINK1 modulator = modulators of PINK1 expression. PINK1 immunofluorescence, high-content cytometry, 24 h. Potency, µM (top dose mostly 76.6 µM), inactives show at the highest dose activation (PINK1 increase), usual class: activators. 0.2% of 410,000 active; active = well fitted activation curve with a large enough effect; inconclusive = small, poorly fitted or top-dose-only effect; inactive = flat fitted curve, though single readings scatter; cell line not stated here;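 further: potency means the concentration at half of the fitted maximal effect; % of control where 0% means no effect; nearly all actives have a fitted effect of over 65% in size; a mitochondrial uncoupler was the plate control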
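Cells are seeded, rested 12 hours, then given compound at five concentrations or DMSO for 24 hours. After fixation, blocking and antibody staining, PINK1 amount and mitochondrial localization are scored; CCCP serves as control.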
D2 potentiator = positive allosteric modulators of human D2 dopamine receptor; P14416; DiscoveRx D2 beta-arrestin cells, luminescence, 90 min; 100% = 57 uM dopamine signal; potentiation, % (concentration not given with the values); 0.23% of 360,000 active; active = potentiation of 50% or more; inconclusive = 30% to 50%; inactive = 30% or less;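 further: compound concentration not given in the record; tested on top of an EC20 dose of dopamine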
Target sequence (P14416 whole entry, looked up): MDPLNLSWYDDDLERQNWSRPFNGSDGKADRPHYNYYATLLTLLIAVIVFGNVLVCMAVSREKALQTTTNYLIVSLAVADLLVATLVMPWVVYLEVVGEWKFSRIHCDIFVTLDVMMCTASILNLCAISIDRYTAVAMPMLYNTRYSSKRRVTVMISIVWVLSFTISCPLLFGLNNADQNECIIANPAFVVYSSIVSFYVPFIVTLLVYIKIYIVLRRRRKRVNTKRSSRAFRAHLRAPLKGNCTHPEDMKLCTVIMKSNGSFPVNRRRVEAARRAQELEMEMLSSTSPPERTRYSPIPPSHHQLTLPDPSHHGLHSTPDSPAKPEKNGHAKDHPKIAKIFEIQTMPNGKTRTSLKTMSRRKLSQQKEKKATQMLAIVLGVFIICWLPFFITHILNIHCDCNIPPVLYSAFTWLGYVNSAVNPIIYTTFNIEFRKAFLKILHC
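D2 cells co-treated with compound plus 50 nM dopamine (EC20) for 90 min at 37 deg C to detect potentiation. Beta-arrestin recruitment was read as enzyme-fragment luminescence after 1 h at ambient temperature. Full response was set by 57 uM dopamine.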
TRPML1 blocker = inhibitors of human TRPML1 channel | Q9GZU1 | TRPML1-inducible cells, Ca2+ dye fluorescence, FDSS; active compounds read low; inhibition of EC80 agonist-evoked calcium signal | activity change, negative = inhibition, % (test concentration not listed) | 0.02% of 390,000 active | AID 624415; in the data active means activity change below about -50%; inconclusive means about -30% to -50%; inactive means above about -30%;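 further: stimulus is agonist 54-4 at its EC80 concentration; on the % scale 0 is the no-effect control and ±100 the full control effect; compound concentration not given in the record; the text of the record puts the active cut at -80%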
Target sequence (Q9GZU1 whole entry, looked up): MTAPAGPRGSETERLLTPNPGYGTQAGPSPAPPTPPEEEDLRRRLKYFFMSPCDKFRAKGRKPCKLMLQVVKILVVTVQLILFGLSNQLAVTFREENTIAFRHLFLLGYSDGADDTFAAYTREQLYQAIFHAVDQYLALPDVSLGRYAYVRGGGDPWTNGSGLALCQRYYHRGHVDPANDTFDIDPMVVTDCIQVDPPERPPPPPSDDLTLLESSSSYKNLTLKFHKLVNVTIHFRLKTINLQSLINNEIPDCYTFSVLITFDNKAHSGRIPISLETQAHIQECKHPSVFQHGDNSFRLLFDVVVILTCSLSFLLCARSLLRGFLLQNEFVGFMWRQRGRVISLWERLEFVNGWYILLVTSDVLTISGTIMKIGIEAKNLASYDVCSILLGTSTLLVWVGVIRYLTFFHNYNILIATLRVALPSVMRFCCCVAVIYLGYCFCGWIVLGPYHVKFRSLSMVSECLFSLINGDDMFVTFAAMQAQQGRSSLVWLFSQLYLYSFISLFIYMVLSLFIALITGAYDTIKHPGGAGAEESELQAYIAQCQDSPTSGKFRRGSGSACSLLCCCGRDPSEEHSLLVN
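TRPML1-DL cells, Tet-induced overnight (~16 h, 37 °C) at 1,500 cells/well, were loaded with Ca8 no-wash dye plus quencher for 45-90 min at room temperature. Compounds were pinned during FDSS kinetic reading; agonist 54-4 at EC80 (4 uM final) then added.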
D2 agonist = human D2 receptor agonism in beta-arrestin assay; AID 624465; 0.084% of 360,000 active; DiscoveRx PathHunter D2 beta-arrestin, luminescence, 90 min; 100% = 57 uM dopamine signal; activation, % (no concentration beside the values); P14416; in the data active = activation above about 40%; inconclusive = about 15% to 40%; inactive = below about 15%; further: compound concentration not given in the record; the text of the record calls up to 30% inactive
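DiscoveRx PathHunter D2 beta-arrestin cells (2,100/well) attached overnight, then compound-stimulated 90 min at 37 C in HBSS/10 mM HEPES/0.1% Tween-20 buffer; beta-galactosidase complementation read by luminescence after 1 h at ambient temperature. Dopamine 57 uM final (EC100) as control.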
TRPML1 ag = agonists of human TRPML1 channel. Q9GZU1. TRPML1-expressing cells, Ca2+ dye fluorescence, FDSS; host cell line not named in the record; reference of the full effect not given here. activation, % (no concentration beside the values). 0.12% of 410,000 active. AID 624414; in the data active = activation above about 50%; inconclusive = about 30% to 50%; inactive = below about 30%; further: 0% is about no effect; the text of the record puts the active cut at 80%
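Calcium fluorescence on an FDSS kinetic reader gave the read-out. Tet-induced TRPML1-DL cells were plated overnight, dye-loaded (Ca8 with quencher, 45-90 min, room temperature, dark), then read 110 s after compound addition, and again 110 s after 4uM final 54-4 (EC80).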
Six1-Eya2 blk = inhibitors of human Six1/Eya2 interaction; activity change, % (no concentration beside the values); 0.56% of 360,000 active; Q15475+O00167; AlphaScreen GST-Six1/His-Eya2 binding, biochemical; active compounds read low; control for the full effect not named in the record; in the data active = activity change below about -65%; inconclusive = about -30% to -65%; inactive = above about -30%; further: on the % scale 0 is the no-effect control and ±100 the full control effect
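AlphaScreen with GST-Six1 and His-Eya2 (5X mix: 250 nM and 500 nM), glutathione donor and nickel acceptor beads; buffer 50 mM Tris pH 8.0, 300 mM NaCl, 1 mM TCEP; 1 h at 37 C in the dark.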
Active calls of the source: *; ? = inconclusive; . = not tested or not shown; & = joins results of further samples; [ ] = dose if it differs, or a comment.

The line under a structure holds: PINK1 modulator	D2 potentiator	TRPML1 blocker	D2 agonist	TRPML1 ag	Six1-Eya2 blk
> COc1ccc(C2(CNC(=O)C(=O)Nc3ccc(C)cc3)CCOCC2)cc1
→ 2.6%	-2	16	2.3	0.3	2
> COc1ccc(-n2cc(C(=O)Oc3cc(C)cc(C)c3)c3ccccc3c2=O)cc1
→ 1.3%	.	1	.	0.4	.
> CCC(=O)OCc1cnc(C)c2oc(=O)c(C(=O)Nc3ccccc3C(F)(F)F)cc12
→ 1.8%	.	-9	.	16	.
> CCOc1ccc(-c2ccc(C=O)o2)c([N+](=O)[O-])c1
→ 0.0%	-4	-1	-1.7	-0.3	-3
> Cc1ccc(N(CCC#N)C(=O)CN2C(=O)NC(Cc3ccccc3)C2=O)cc1 (stereo unspecified)
→ -1.3%	0	-16	2.9	0.6	8
> CC1(C(=O)NCCN2CCOCC2)C=CCN1C(=O)c1ccccc1 (stereo unspecified)
→ 1.3%	-9	-21	0.6	-0.5	-16
> COc1ccc(CC(=O)NCc2ccc(F)cc2)cc1S(=O)(=O)N1CCOCC1
→ 2.3%	-17	4	-4.2	0.0	-2
> CCC(NC(=O)c1oc2ccccc2c1COC)c1ccc(OC)cc1 (stereo unspecified)
→ 0.8%	-12	15	3.8	4.0	6
> CCCCn1c(N)c(N(CCC(C)C)C(=O)Cc2ccc(S(=O)(=O)N3CCOCC3)s2)c(=O)[nH]c1=O
→ -0.9%	-18	6	-6.7	-0.1	0
> COc1ccccc1NC(=O)CNC(=O)Cn1c(C)cc2ccccc2c1=O
→ 3.8%	-4	-5	2.3	0.1	-7
> OC[C@@H]1CN(Cc2ccc(-c3ccccc3)cc2)C[C@H](n2cnc3c(NC4CCC4)ncnc32)O1
→ 22%	-3	.	13	0.5	-7
> COCCNC(=O)C1(C)CCCN(C(=O)c2ccc3snnc3c2)C1 (stereo unspecified)
→ 0.2%	-3	.	-1.4	0.3	7
> CCOC(=O)C1C(=O)CC(C)(O)C(C(=O)OCC)C1c1ccc(N(CC)CC)cc1 (stereo unspecified)
→ 1.2%	-6	11	-5.1	-0.8	-8
> COc1cc(SC)ccc1C(=O)NCC1CCCO1 (stereo unspecified)
→ -0.8%	-23	50	-0.5	-0.5	-1
> COc1ccc(Cc2nn3c(Cn4nnc5ccccc54)nnc3s2)cc1
→ -1.2%	-4	-22	-1.7	-0.7	2
> O=C(O)C1C2CC3OC(=O)C1C3C2 (stereo unspecified)
→ -0.1%	-7	5	-0.8	-0.4	3
> O=C1NC[C@H](CCCCN2C[C@H](Cc3ccc(O)cc3)N(CCC3CCCCC3)C(=O)C2=O)N(CCc2ccccc2)C1=O
→ 1.0%	.	.	.	-0.1	8
> O=C(Nc1ccccc1C(F)(F)F)c1cc(S(=O)(=O)N2CCC3(CC2)OCCO3)ccc1F
→ 0.8%[38.3 µM]	-4	-2	2.2	-0.1	1
> O=C1CCCN2N=C(SCC(=O)Nc3ccc(OC(F)(F)F)cc3)SC2=N1
→ -0.6%	-4	10	-1.7	0.6	-18
> O/N=C1/CCCSc2ccccc21
→ 5.9%	11	5	4.0	0.5	6
> CS(=O)(=O)c1ccc(C(=O)Nc2ccc(-c3nc4ccccc4[nH]3)cc2)cc1
→ -2.0%	-9	-22	-0.9	-0.1	-2
> NC(=S)N=Nc1c(O)[nH]c2cc(F)c(F)cc12
→ 0.4%	-8	-26	-2.4	-0.8	-65*
> O=C(/C=C/c1ccc2c(c1)OCO2)Nc1nncs1
→ 4.4%	-3	10	-4.6	4.6	3
> Cc1ccc(C2=NN(C(=O)CCC(=O)O)C(c3ccc4c(c3)OCO4)C2)cc1 (stereo unspecified)
→ -1.2%	-1	-11	-4.7	-0.4	3
> COc1cc(NC(=O)Cn2nnc(-c3ccncc3)n2)cc(OC)c1
→ -2.5%[38.3 µM]	-10	16	1.9	0.1	-5
> COc1ccc(C(=O)Nc2nnc(C3=COCCO3)o2)cc1
→ 1.2%	-4	-7	-3.0	0.2	-27
> CCN(CC)S(=O)(=O)c1ccc(N(C)C)c(NC(=O)C2CCCC2)c1
→ 1.0%	-9	.	1.5	.	-6
> CCC(C(=O)NCc1ccc(F)cc1)N(Cc1cccs1)C(=O)c1snc(C(N)=O)c1N (stereo unspecified)
→ -0.3%	3	-22	-0.1	1.8	8
> O=C(Nc1cc(S(=O)(=O)N2CCOCC2)ccc1N1CCOCC1)c1cn2ccccc2n1
→ -0.3%	-1	2	0.4	-0.5	-3
> COc1ccc(-c2cc(=O)[nH]c3ccccc23)cc1
→ 0.6%	0	47	1.8	2.7	0
> O=C(CCc1nnc(Cc2cccc(C(F)(F)F)c2)o1)NC1CC1
→ -1.0%	0	-2	-1.7	-0.5	2
> Cc1cc(C(=O)Nc2ccccc2N2CCOCC2)ccc1[N+](=O)[O-]
→ 5.2%	21	9	-1.1	0.4	0
> Cc1cc(Cl)ccc1C(=O)C1CCCN(C(=O)c2ccoc2)C1 (stereo unspecified)
→ 0.9%	4	12	6.3	1.4	-4
> c1ccc(-c2nnc(-c3ccco3)o2)cc1
→ 0.0%	-16	-5	-0.9	-0.4	-1
> Cc1ccc(C(C)C)c(OCCCN2C(=O)NC(C)(C)C2=O)c1
→ -3.7%	5	-6	3.1	22	1
> COCCNc1ccnc2c(Cl)cccc12
→ 0.1%	-1	-4	1.4	-0.4	0
> COc1ccc(-c2ccccc2)cc1NC(=O)c1cccs1
→ -0.3%	-9	11	3.3	-0.4	14
> COC(=O)c1ccccc1NC(=S)N(Cc1ccc2c(c1)OCO2)Cc1cc2cc(OC)ccc2[nH]c1=O
→ 0.4%	-23	17	-0.8	2.1	-17
> Cc1ccc2c(c1)C1CN(C)CCC1N2S(=O)(=O)c1cccc(F)c1 (stereo unspecified)
→ 0.3%	-27	4	-1.2	0.6	4
> CN(CCc1ccccn1)C(=O)CC1C(=O)NCCN1Cc1cccc(F)c1 (stereo unspecified)
→ -0.2%	-9	1	-1.8	-0.5	6
> C/C(CC(=O)Nc1ccc2c(c1)OCCO2)=N\NC(=O)COc1ccc(C)cc1Br
→ 0.7%	-20	-16	-0.1	-0.3	-2
> CCOC(=O)c1c(-c2ccccc2)oc2cc(CN(C)C)c(O)c(CN(C)C)c12
→ -0.9%[38.3 µM]	-9	-5	-0.4	-0.7	-12
> C=CC(=O)N(CCC)C(c1ccccc1)c1ccccc1OC (stereo unspecified)
→ -0.9%	-14	1	-2.3	0.6	-2
> CCOc1ccc(CNC(=O)c2ccc(-c3nc(CS(=O)(=O)c4ccccc4)c(C)o3)cc2)cc1
→ ?	.	-5	.	-0.3	.
> CSc1nc2ccc(S(=O)(=O)N3CCOCC3)cc2s1
→ .	4	-13	0.8	-0.4	-1
> CCN(CC(=O)NCc1ccccn1)S(=O)(=O)c1ccc(OC)cc1
→ 1.5%	-7	-1	-2.3	0.3	6
> Cc1cc(C(F)(F)F)nc(SCc2ccc(C(=O)O)o2)n1
→ -0.6%	-3	-4	-2.3	-0.7	-5
> CCOC(=O)N1CCN(C(=O)C(=O)c2cn(CC(=O)N3CCCCCC3)c3ccccc23)CC1
→ 3.0%	-10	-13	0.5	0.5	11
> COCP(=O)(c1ccccc1)c1ccccc1
→ 16%[38.3 µM]	-12	-12	-2.7	-0.1	-3
> CC(C)S(=O)(=O)c1oc(-c2cccs2)nc1S(=O)(=O)c1ccc(F)cc1
→ -0.9%	.	9	.	3.3	.
> CC(=O)Nc1ccccc1Oc1ccccc1
→ 2.6%	-8	14	8.8	0.9	-5
> CCC(C)c1ccc(NC(=O)c2cccs2)cc1 (stereo unspecified)
→ 2.9%[38.3 µM]	-2	-6	1.6	3.9	7
> Cc1ccc(-n2nnnc2Sc2nc([N+](=O)[O-])nn2C)c(C)c1
→ -1.1%	22	10	4.5	0.7	0
> COc1ccc(S(=O)(=O)N/N=C\c2ccc3c(c2)OCO3)cc1
→ ?	2	15	-2.8	0.2	-16
> CC(C)(C)NC(=O)NC(=O)CN1CCCCCCC1
→ -1.4%	-10	-8	1.3	2.7	3
> O=CN1Cc2ccccc2-c2ccccc2C1
→ 0.3%	-9	-2	-1.0	-0.6	5
> Cc1cccc(NC(=O)CN2C(=O)CSC2=O)c1
→ 1.3%	2	-6	0.8	-0.6	2
> CCOc1ccc(CCNC(=O)C2CCN(c3nn4c(=O)cc(C)nc4s3)CC2)cc1
→ -1.6%	-18	2	-0.9	-1.1	-7
> CS(=O)(=O)c1ccc(N2CCN(S(=O)(=O)c3cccs3)CC2)c([N+](=O)[O-])c1
→ 2.2%	9	2	1.0	-1.2	10
> CC(=O)/C(=C/Nc1ccc(Oc2ccccc2)cc1)c1ccccc1
→ 7.0%	5	9	-1.3	-0.3	4

Compound profiles, as listed above. Order of values: PINK1 modulator, D2 potentiator, TRPML1 blocker, D2 agonist, TRPML1 ag, Six1-Eya2 blk
CC(=O)Nc1ccccc1Oc1ccccc1 is entered as 2.6%, -8, 14, 8.8, 0.9, -5
Cc1cccc(NC(=O)CN2C(=O)CSC2=O)c1 is entered as 1.3%, 2, -6, 0.8, -0.6, 2

Part of the list above, as labelled records:
> CCOC(=O)C1C(=O)CC(C)(O)C(C(=O)OCC)C1c1ccc(N(CC)CC)cc1 (stereo unspecified)
  PINK1 modulator: 1.2%; D2 potentiator: -6; TRPML1 blocker: 11; D2 agonist: -5.1; TRPML1 ag: -0.8; Six1-Eya2 blk: -8

> COc1cc(SC)ccc1C(=O)NCC1CCCO1 (stereo unspecified)
  PINK1 modulator: -0.8%; D2 potentiator: -23; TRPML1 blocker: 50; D2 agonist: -0.5; TRPML1 ag: -0.5; Six1-Eya2 blk: -1

> COc1ccc(Cc2nn3c(Cn4nnc5ccccc54)nnc3s2)cc1
  PINK1 modulator: -1.2%; D2 potentiator: -4; TRPML1 blocker: -22; D2 agonist: -1.7; TRPML1 ag: -0.7; Six1-Eya2 blk: 2

(next part)
The line under a structure holds: PINK1 modulator	D2 potentiator	TRPML1 blocker	D2 agonist	TRPML1 ag	Six1-Eya2 blk
> CC(=O)c1cccc(NC(=O)C2=CC(c3ccco3)=NS(=O)(=O)N2C)c1
→ 1.2%&1.7%	-5	5&6	-4.0	-0.2&-0.2	-3
> CC(=O)c1cccc(NC(=O)c2ccc(-c3c(C)noc3C)c3ccoc23)c1
→ 3.9%	19	.	13	-0.7	-28
> CCCC(=O)N1c2ccccc2C(N(C(C)=O)c2ccccc2)CC1C (stereo unspecified)
→ 0.1%	-4	-5	-3.4	-0.6	2
> CCOC(=O)CCS(=O)(=O)c1ccc(-c2ccc(S(=O)(=O)CCC(=O)OCC)cc2)cc1
→ .	10	-6	-0.2	0.3	4
> N=C(N)SCc1cccc2ccccc12
→ 8.0%	-40	33	-4.5	0.5	-9
> O=C(Cn1cnc2c(nnn2-c2ccc(F)cc2)c1=O)N1CCCc2ccccc21
→ 29%[38.3 µM]	-14	0	0.2	0.1	0
> CCOC(=O)N1CCN(C2CC(=O)N(c3ccc(Cl)c(Cl)c3)C2=O)CC1 (stereo unspecified)
→ 4.0%	0	-9	-1.4	0.2	-4
